Compound activity as filed in PubChem BioAssay.
miR-21 FLuc = raises the signal of a miR-21 reporter. 340,000 tested, under 10 active. Potency, µM (series often up to 38.3 µM), for inactives: top-dose reporter change, positive = more light. AID 2288. HeLa miR-21 FLuc reporter, luciferase, 48 h; active = well fitted rising curve with a large enough effect; inconclusive = small, poorly fitted or top-dose-only effect; inactive = no such curve, though single readings can be large or run the other way;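 also: % of control where 0% means no effect; miR-21 action dims this reporter so a rising signal means less miR-21 action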
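HeLa miR-21-FLuc reporter line, endogenous miR-21; 2000 cells/well in DMEM/10% FBS; compound titration up to ~40uM final, 48 h, 37 degree Celsius; luciferase detection reagent, 15 min lysis, CCD luminescence.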
Rango dissoc inh = inhibitors of RanGTP-induced Rango-importin beta complex dissociation; O95149+P62826; Biochemical FRET Rango-importin beta, RanGTP-induced dissociation; Potency, µM (highest dose often 46.1 µM), for inactives: at the top dose activity change, negative = inhibition; 340,000 compounds, 0.071% hits; AID 540253; active means falling FRET ratio curve, often poorly fitted, with flat reads before Ran was added; inconclusive means other falling curves, or compound fluorescence or quenching; inactive means flat or rising ratio curve;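 also: potency is read from the fitted curve at half-maximal effect; % of control where 0% means no effect; nearly all actives have a fitted effect of over 45% in size; -100% = wells without RanGTP and RCC1; the record marks most hits as doubtful in a second field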
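Rango (0.1 uM)–importin beta (0.25 uM) complex; RanGTP-RCC1 trigger; 45 min RT; CFP/YFP FRET read.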
Rango complex inh = prevents formation of the Rango-importin beta complex; Q14974; Rango CFP/YFP FRET sensor + importin beta, 45 min; Potency, µM (titrated, usually from 92.2 µM), without a hit: at the top dose inhibition of complex formation; 340,000 compounds, 0.031% hits; AID 540263; active = rising FRET ratio curve, often small or poorly fitted; inconclusive = mostly compound fluorescence or quenching in the first reads; inactive = flat curves in all reads;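 also: potency is read from the fitted curve at half-maximal effect; 0% = DMSO wells and 100% = buffer wells lacking importin beta; nearly all actives have a fitted effect of over 15% in size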
Target sequence (Q14974 whole entry, looked up): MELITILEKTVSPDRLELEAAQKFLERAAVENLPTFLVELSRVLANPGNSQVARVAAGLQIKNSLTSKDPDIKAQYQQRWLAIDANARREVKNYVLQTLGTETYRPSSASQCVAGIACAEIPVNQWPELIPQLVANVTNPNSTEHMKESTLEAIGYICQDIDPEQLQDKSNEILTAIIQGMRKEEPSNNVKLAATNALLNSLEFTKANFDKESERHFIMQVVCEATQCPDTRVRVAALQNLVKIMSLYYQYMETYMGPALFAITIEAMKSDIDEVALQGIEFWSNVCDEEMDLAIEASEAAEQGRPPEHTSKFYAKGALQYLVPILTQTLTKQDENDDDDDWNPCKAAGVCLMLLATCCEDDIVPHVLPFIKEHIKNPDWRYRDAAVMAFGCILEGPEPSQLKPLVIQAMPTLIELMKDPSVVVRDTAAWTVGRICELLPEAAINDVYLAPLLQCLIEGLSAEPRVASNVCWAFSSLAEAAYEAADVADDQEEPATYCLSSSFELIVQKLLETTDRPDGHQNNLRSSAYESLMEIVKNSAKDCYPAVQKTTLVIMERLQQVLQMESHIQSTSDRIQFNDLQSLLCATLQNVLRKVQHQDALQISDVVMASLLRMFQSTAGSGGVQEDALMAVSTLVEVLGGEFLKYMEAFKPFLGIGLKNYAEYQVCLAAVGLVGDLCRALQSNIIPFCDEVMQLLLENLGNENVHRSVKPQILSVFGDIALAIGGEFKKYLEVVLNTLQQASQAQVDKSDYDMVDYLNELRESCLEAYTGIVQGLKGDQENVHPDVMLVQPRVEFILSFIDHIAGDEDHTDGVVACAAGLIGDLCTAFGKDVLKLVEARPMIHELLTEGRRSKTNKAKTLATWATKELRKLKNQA
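Inhibition scored from the CFP 486 nm/YFP 530 nm FRET ratio 45 min after adding 0.125 microM importin beta to 50 nM Rango biosensor preincubated 5 min with compound (room temperature, PBS with DTT, Tween-20, BSA). No-importin wells as positive control.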
GLA inh pH 4.5 = alpha-galactosidase A (human) inhibition, pH 4.5; P06280; purified enzyme, 4-MU-alpha-Gal fluorescence, pH 4.5; activity change, negative = inhibition, % at 105 µM; 230,000 tested, under 10 active; AID 1467; inconclusive = small, poorly fitted or top-dose-only inhibition, or a rising curve; inactive = flat fitted curve, though single readings scatter; no compound was filed as active;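 also: 0% = full activity with enzyme and -100% = basal without enzyme; dose as in the result columns while the protocol names 77 µM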
Starred values were filed as active, the others as inactive; ? = inconclusive; · = no result given; & = joins results of further samples. An excerpt. The share of hits here may be higher or lower than overall.

SMILES	miR-21 FLuc	Rango dissoc inh	Rango complex inh	GLA inh pH 4.5
O=C(Cn1cnc2ccccc21)OCC(=O)N1CCCCC1	·	5%	-0.3%	·
COc1ccccc1CC(=O)Nc1ncc(C)s1	-1%	-16%	-0.4%	·
CN(C)C(=S)Nc1cccc(F)c1	?	-5%	-1.9%	-7
CN(C)c1oc(-c2ccccc2F)nc1C#N	-21%	1%	0.1%	12
COC(=O)c1cc(-c2cccc(OC)c2)on1	-4%	-18%	1.8%	-4
Cc1ccc(S(=O)(=O)Nc2cccc(C(=O)Nc3cc(C)ccn3)c2)cc1	-6%	·	·	-14
CCC(C)[C@H](Nc1nc(-c2ccccc2)nc2c1oc1ccccc12)C(=O)O (some centres not stated)	2%	3%	2.3%	0
Cc1nn(C(=O)c2ccccc2)c2c1C(=O)CC(C)(C)C2	-1%	7%	-7.1%	6
Cc1cccc(N2CCN(CC(=O)Nc3ccc(-n4cnnn4)cc3)CC2)c1C	-2%	1%	-2.6%	-20
CCOc1ccc(NC(=O)CCC(=O)Oc2ccc(C)cc2)cc1	-2%	1%	3.8%	·
Cc1cc(C)nc(NC(=O)c2c(C(=O)O)noc2C)n1	8%	-13%	0.8%	-7
N#Cc1ccc(-c2c(-c3ccccc3)ncc3cc(F)ccc23)cc1	·	-28%	-0.3%	·
COc1ccc(-c2cn3cc(C)ccc3n2)cc1Br	-13%	1%	?	-9
O=C(CCCN1C(=O)c2ccccc2C1=O)Nc1ccccn1	2%	0%	-1.5%	4
Cc1cc(Cl)ccc1NC(=O)CN1CCCC1	-4%	20%	3.7%	·
O=C([C@@H]1CC=C[C@@H]2CCN(C3CC3)C(=O)[C@@H]21)N1CCN(c2ccccc2)CC1	·	-14%	-0.2%	·
Cc1ccc(NS(=O)(=O)c2cc(NC(=O)C(C)Oc3ccccc3)ccc2C)c(C)c1 (configuration not stated)	16%	-4%	-6.0%	5
O=C(COC(=O)c1ccc(Cl)cc1)NC1CCCCCC1	·	-3%	-0.2%	·
CC(=O)c1cccc(NC(=O)CN(c2cccc(F)c2)S(C)(=O)=O)c1	-10%	-5%	-4.2%	-3
Cc1ccc(C(=O)OCC(=O)NNC(=O)COc2ccc(Cl)cc2)c(O)c1	·	-4%	-1.1%	·
Cc1cccc(N/C=C(\[N+](=O)[O-])S(=O)(=O)c2ccccc2)c1	0%	2%	0.0%	0
Cc1noc(NS(=O)(=O)c2ccc(N)cc2)c1C	-3%	-9%	-0.3%	-4&0&4&2
CC(C)(C)NC(=O)NC(=O)COC(=O)CNC(=O)c1cccc(F)c1	-1%	1%	-2.4%	-3
Cn1c(N)c(C(=O)CSc2ncn[nH]2)c(=O)n(C)c1=O	-7%	-5%	1.3%	-4
O=C(O)CCC(=O)NCC1OCCc2ccccc21 (configuration not stated)	3%	8%	6.0%	0

A different layout for part of the listing above:
| canonical_smiles | miR-21 FLuc | Rango dissoc inh | Rango complex inh | GLA inh pH 4.5 |
| --- | --- | --- | --- | --- |
| COc1ccc(-c2cn3cc(C)ccc3n2)cc1Br | -13% | 1% | ? | -9 |
| O=C(CCCN1C(=O)c2ccccc2C1=O)Nc1ccccn1 | 2% | 0% | -1.5% | 4 |
| Cc1cc(Cl)ccc1NC(=O)CN1CCCC1 | -4% | 20% | 3.7% | · |
| O=C([C@@H]1CC=C[C@@H]2CCN(C3CC3)C(=O)[C@@H]21)N1CCN(c2ccccc2)CC1 | · | -14% | -0.2% | · |
| Cc1ccc(NS(=O)(=O)c2cc(NC(=O)C(C)Oc3ccccc3)ccc2C)c(C)c1 (configuration not stated) | 16% | -4% | -6.0% | 5 |
| O=C(COC(=O)c1ccc(Cl)cc1)NC1CCCCCC1 | · | -3% | -0.2% | · |
| CC(=O)c1cccc(NC(=O)CN(c2cccc(F)c2)S(C)(=O)=O)c1 | -10% | -5% | -4.2% | -3 |
| Cc1ccc(C(=O)OCC(=O)NNC(=O)COc2ccc(Cl)cc2)c(O)c1 | · | -4% | -1.1% | · |
| Cc1cccc(N/C=C(\[N+](=O)[O-])S(=O)(=O)c2ccccc2)c1 | 0% | 2% | 0.0% | 0 |
| Cc1noc(NS(=O)(=O)c2ccc(N)cc2)c1C | -3% | -9% | -0.3% | -4&0&4&2 |
| CC(C)(C)NC(=O)NC(=O)COC(=O)CNC(=O)c1cccc(F)c1 | -1% | 1% | -2.4% | -3 |
| Cn1c(N)c(C(=O)CSc2ncn[nH]2)c(=O)n(C)c1=O | -7% | -5% | 1.3% | -4 |
| O=C(O)CCC(=O)NCC1OCCc2ccccc21 (configuration not stated) | 3% | 8% | 6.0% | 0 |

Following part.
SMILES	miR-21 FLuc	Rango dissoc inh	Rango complex inh	GLA inh pH 4.5
CC1CC2(CC(C)(C(=O)CSc3nc4ccccc4s3)OC2=O)C(=O)O1 (configuration not stated)	1%	1%	-5.1%	-1
Cc1cc(C)n2nc(SC(C)C(=O)N(C)c3ccccc3)nc2n1 (configuration not stated)	·	-19%	-2.3%	·
O=C(NC1CCCc2ccccc21)c1ccc(Cl)nc1 (configuration not stated)	-6%	-13%	8.3%	-7
CCN1CCN(C(=O)C(Cc2ccccc2)NC(=O)c2ccc(Cl)c(S(=O)(=O)N(C)C)c2)CC1 (configuration not stated)	·	-1%	-2.7%	·
O=[N+]([O-])c1cccc(NC(=S)N2CCc3ccccc32)c1	0%	33%	1.6%	·
CCc1n[nH]c2c1/C(=N\O)CC(c1ccccc1)C2 (configuration not stated)	-22%	1%	-1.6%	11
COc1ccc(N2CC(C(=O)N/N=C/c3c[nH]c4ccccc34)CC2=O)cc1 (configuration not stated)	-1%	-16%	1.6%	12
Oc1nc(-c2ccc(Br)cc2)n2ccncc12	1%	13%	2.4%	-2
CSc1ncccc1C(=O)Nc1cccc(S(=O)(=O)N(C)c2ccccc2)c1	·	10%	1.6%	·
CN(c1ccc(C(=O)NCCCn2ccnc2)cc1)S(C)(=O)=O	3%	-19%	-3.5%	·
CCCOC(=O)N[C@@H]1C(=O)N2C(C(=O)OCCC)=C(C)CS[C@H]12	0%	-12%	-1.9%	·
CO/N=C/C(C(C)=O)C(=O)Nc1ccc(Cl)cc1Cl (configuration not stated)	5%	-13%	-1.3%	6
CC1CCc2sc(C(=O)Nc3ccc(N4CCOCC4)cc3)cc2C1 (configuration not stated)	-3%	-4%	1.7%	3
CC(C)c1ccc(NC(=O)CSc2n[nH]c(=O)n2-c2cccnc2)cc1	-1%	-12%	0.2%	·
Cc1cccc(C)c1NC(=O)CN1C(=O)COc2ccccc21	-1%	7%	-0.3%	·
COc1ccccc1/C=N/Nc1nccnc1Cl	-52%	11%	-0.9%	-2
CCC(c1nnc(SCC(=O)Nc2nnc(-c3ccccc3)o2)o1)N(C)C (configuration not stated)	-5%	3%	0.3%	0
CCCNC(=O)C(Cc1ccc(Cl)cc1)NC(=O)c1ccc(-c2ccccc2)cc1 (configuration not stated)	·	-7%	0.2%	·
COc1cccc(/C=N/NC(=O)c2ccc3nc[nH]c3c2)c1	-7%	12%	0.8%	3
C/C(=N\O)c1cccc(Br)c1	-2%	4%	-0.9%	3
CCc1cc2cccc(C)c2nc1SCC(=O)Nc1nonc1C	0%	-9%	0.5%	4
CC(C)Cn1c(NCCN(C)C)nc2c1c(=O)[nH]c(=O)n2C	0%	8%	-0.2%	3
Nc1nc(NC2CCCCC2)nc(NCCO)c1[N+](=O)[O-]	-12%	1%	0.0%	·
COc1cc2c(cc1OC)C1=C(C#N)CCC(=NC(=O)c3ccco3)N1CC2	-13%	-8%	3.2%	-13
Oc1ccc(N=Nc2n[nH]c(-c3ccc(Br)cc3)n2)cc1	-9%	-8%	5.8%	-9

Further entries
SMILES	miR-21 FLuc	Rango dissoc inh	Rango complex inh	GLA inh pH 4.5
CC(C)Cc1nc2oc3c(=O)[nH]cnc3c2c2c1CCC2	-2%	-2%	-0.1%	2
Cc1cccc(NC(=O)CN2C(=O)c3ccccc3S2(=O)=O)n1	·	-5%	3.4%	·
COc1ccc(CCNC(=O)C2CC(=O)N(C3CCCCC3)C2)cc1OC (configuration not stated)	-4%	1%	1.2%	·
COc1ccccc1N1CCN(c2ccc3ccccc3n2)CC1	-48%	0%	2.3%	·
O=C(NCCCN1CCN(c2ccccc2F)CC1)C1CCN(S(=O)(=O)N2CCOCC2)CC1	-5%	5%	1.5%	1
CN1C(=O)[C@@H]2[C@@H]3C[C@@H]([C@H]4ON=C(c5ccc(Cl)cc5)[C@@H]34)[C@@H]2C1=O	-3%	10%	0.7%	7
COc1ccccc1OCc1nc(-c2cccc([N+](=O)[O-])c2)no1	-13%	-5%	2.4%	-7
COc1ccc(NC(C)C(=O)N/N=C/c2ccc([N+](=O)[O-])s2)cc1 (configuration not stated)	?	2%	-0.6%	-10
Cc1cc(F)ccc1NC(=O)c1cccnc1	4%	1%	1.2%	1
O=C(COC(=O)c1ccc(Br)o1)c1ccc(S(=O)(=O)N2CCCCC2)cc1	·	-8%	6.1%	·
CCOC(=O)[C@H]1[C@H]2COc3ccc(Br)cc3[C@@H]2N2C(=O)c3cc(OC)c(OC)cc3NC(=O)[C@@]12C	·	-15%	-6.0%	·
Cc1cc(NC(=O)CSc2nnnn2-c2ccc(C)c(Cl)c2)no1	1%	-7%	0.6%	·
CCOC(=O)c1nnn(-c2nonc2-n2cccc2)c1-c1cccc([N+](=O)[O-])c1	0%	3%	-0.1%	-9
Cc1cc(C[n+]2ccsc2N)c2ncccc2c1	1%	9%	-0.6%	7
CS(=O)(=O)c1ncc(CO)n1Cc1ccccc1	1%	3%	-0.2%	2
O=C(CCCN1C(=O)/C(=C/c2cccc(Br)c2)SC1=S)Nc1ccccn1	-1%	-2%	4.1%	1
O=C1C=C(c2ccccc2)C(=O)N1Nc1ccccc1	?	-7%	-0.6%	1
O=C(Nc1ccccc1N1CCOCC1)C1Cc2ccccc2CN1C(=O)c1ccco1 (configuration not stated)	-7%	-4%	3.0%	3
OC1CSc2nc3ccccc3n2C1 (configuration not stated)	0%	-9%	-1.9%	1
CCOC(=O)C(Cc1ccnc2ccccc12)=NO	·	0%	-0.8%	·
CC(=O)Nc1cccc(C(=O)/C=C/c2ccc(N(C)C)cc2)c1	-32%	?	?	-17
COc1ccc(C(=O)OC(COc2ccccc2)Cn2ccnc2)cc1 (configuration not stated)	-23%	7%	0.6%	0
O=C(Cn1cnc2c(nnn2Cc2ccccc2)c1=O)NCc1ccccc1Cl	1%	8%	2.8%	8
CCCCC1CC(/C(C)=N/NC(N)=O)OC1=O (configuration not stated)	-3%	-4%	-0.1%	-3
COc1ccc(O)c(C(=O)/C=C/c2cc3ccccc3o2)c1	-9%	-2%	2.1%	-6

More compounds:
SMILES	miR-21 FLuc	Rango dissoc inh	Rango complex inh	GLA inh pH 4.5
CC(C)C(NS(=O)(=O)c1ccc2c3c(cccc13)C(=O)N2)C(=O)O (configuration not stated)	-2%	?	?	-3
CCCCc1cc(=O)oc2cc(C)cc(OCC(=O)NCc3cccnc3)c12	-2%	-7%	-1.4%	·
CCCCCN(C(=O)CCC(=O)OCC(=O)N(C)c1ccccc1)c1c(N)n(CCCC)c(=O)[nH]c1=O	·	-12%	-0.2%	·
Cn1c(=O)c(Oc2ccc(Cl)cc2)c(O)c2ccccc21	8%	8%	-0.4%	4
CCCCNC(=O)NCc1cnn(C)c1C	-12%	0%	3.2%	-11
Cc1ccc(Nc2cc(-n3cccn3)ncn2)c(C)c1	-45%	6%	-0.9%	5
O=[N+]([O-])c1cccc(-c2ncc3ccccn23)c1	-28%	6%	-1.3%	3
CC(=O)c1cc(C#N)c(Oc2ccc(F)cc2)nc1C	-8%	-3%	-1.3%	-17
Cc1ccc(S(=O)(=O)c2c(C)nn(-c3ccccc3)c2OC(=O)c2ccc(Br)o2)cc1	-3%	11%	1.6%	-3
O=C(C1CCN(Cc2nc(-c3ccc(Cl)cc3)no2)CC1)N1CCOCC1	8%	-11%	-0.8%	-1
C=CCSc1nc2sc3c(c2c(=O)n1-c1ccccc1)CCN(C)C3	-8%	0%	-5.6%	·
O=C(Nc1ccc(Br)cc1)c1cc2ccccn2n1	-28%	1%	5.1%	0
Cc1cc(=O)c2cccc(Br)c2[nH]1	-7%	-7%	-0.9%	-2
COc1ccccc1Cn1c(=S)[nH]c2cc(C(=O)NC(C)C)ccc2c1=O	0%	-1%	0.4%	·
COC(=O)C1=C(C)N(CCc2cc(OC)c(OC)c(OC)c2)C(=O)N[C@H]1c1ccc(Br)cc1	1%	·	·	-6&-15
